Compound activity (PubChem BioAssay)
Lassa entry inh: inhibitors of Lassa virus binding or cell entry; Lassa virus pseudotype entry inhibition, cell reporter; control for the full effect not named in the record; Potency, µM (titrated, usually from 37.9 µM), for inactives: top-dose activity change, negative = inhibition, most hits filed as inhibitors; hit rate 1.2% among 300,000; active means well fitted inhibition curve with a large enough effect; inconclusive means small, poorly fitted or top-dose-only effect, or effect the other way; inactive means flat fitted curve, though single readings scatter; tested in HEK293 cells; also: % is scaled to controls: 0 for no effect and ±100 for the full control effect; nearly all actives have a fitted effect of over 50% in size; luciferase read-out
Marburg entry inh: inhibitors of Marburg virus binding or cell entry | Marburg virus pseudotyped entry inhibition, cell reporter; control for the full effect not named in the record; about a third of the inactives were read at about 46 µM | Potency, µM (doses to about 37.8 µM), for the others: at the top dose activity change, negative = inhibition, usual class: inhibitors | hit rate 1.8% among 300,000 | AID 540276; active = well fitted inhibition curve with a large enough effect; inconclusive = small, poorly fitted or top-dose-only effect, or effect the other way; inactive = flat fitted curve, though single readings scatter; tested in HEK293 cells; about a fifth of its hits are not listed in these tables; also: % is scaled to controls: 0 for no effect and ±100 for the full control effect; luciferase read-out
StopGo reporter: lowers the luciferase signal of an FMDV 2A StopGo reporter; human cells with a luciferase reporter of 2A StopGo recoding; control for the full effect not named in the record; Potency, µM (highest dose often 57.9 µM), for inactives: at the highest dose signal change, negative = less light; hit rate 1.2% among 410,000; AID 1159524; active = well fitted falling curve with a large enough effect; inconclusive = small, poorly fitted or top-dose-only effect; inactive = no such curve, though single readings can be large or run the other way; tested in HEK293T cells; also: % is scaled to controls: 0 for no effect and ±100 for the full control effect; nearly all actives have a fitted effect of over 45% in size; luciferase light after 4 h
Cruzain noTriton: blocks cruzain activity in detergent-free assay | P25779 | purified cruzain, Z-FR-AMC fluorescence, no detergent | Potency, µM, for inactives: max response, negative = inhibition, hits mostly inhibitors | hit rate 2.3% among 200,000; active = well fitted curve in the direction sought with a large enough effect; inconclusive = small, poorly fitted or top-dose-only effect, or another doubt; inactive = no such curve, though single readings can be large; an effect the other way counts as inactive or inconclusive;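 also: plate controls were enzyme without inhibitor for no effect and buffer without enzyme for full effect; nearly all actives have a fitted effect of over 40% in size; top concentration of the series not given in the record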
Target sequence (P25779 123-467 limits assumed): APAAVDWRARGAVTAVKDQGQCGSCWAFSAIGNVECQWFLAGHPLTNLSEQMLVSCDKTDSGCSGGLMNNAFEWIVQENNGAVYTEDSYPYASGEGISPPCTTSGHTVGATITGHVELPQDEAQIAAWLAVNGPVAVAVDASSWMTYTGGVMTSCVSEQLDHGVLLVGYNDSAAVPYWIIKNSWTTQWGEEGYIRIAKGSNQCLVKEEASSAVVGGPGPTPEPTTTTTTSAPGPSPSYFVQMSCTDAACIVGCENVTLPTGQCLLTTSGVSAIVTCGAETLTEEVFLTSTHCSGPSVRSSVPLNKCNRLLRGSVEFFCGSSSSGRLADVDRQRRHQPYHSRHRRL
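Purified cruzain at 1.5 nM, pre-incubated 15 min with compound at room temperature in 100 mM sodium acetate pH 5.5, 5 mM DTT, 0.00005% Triton X-100. Reaction started with 2 uM Z-FR-AMC; AMC fluorescence increase over 60 s gives rate.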
SARS PLpro yeast: blocks SARS-CoV papain-like protease in a yeast assay; S. cerevisiae expressing SARS-CoV PLpro, growth rescue; control for the full effect not named in the record; Potency, µM (doses to about 32.9 µM), without a hit: top-dose activity, positive = growth rescue; hit rate 0.19% among 330,000; AID 485353; also: 0% is about no effect; nearly all actives have a fitted effect of over 55% in size; growth read by luminescence after 48 h
Cruzain inh Det: inhibitors of Trypanosoma cruzi cruzain with detergent. Potency, µM, inactives show max response, negative = inhibition, hits mostly inhibitors. P25779. purified cruzain, Z-FR-AMC fluorescence, 0.01% Triton. hit rate 0.43% among 200,000; active = well fitted curve in the direction sought with a large enough effect; inconclusive = small, poorly fitted or top-dose-only effect, or another doubt; inactive = no such curve, though single readings can be large; an effect the other way counts as inactive or inconclusive;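 also: plate controls were neutral wells for no effect and buffer without enzyme for full effect; nearly all actives have a fitted effect of over 40% in size; top concentration of the series not given in the record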
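Read-out: AMC fluorescence (360 nm excitation, 450 nm emission), four reads over 2 min, first-to-third difference used. Conditions: cruzain 1.5 nM, Z-FR-AMC 2 uM, pH 5.5 acetate, 5 mM DTT, 0.01% Triton X-100.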
NS1 inh: inhibitors of influenza NS1 protein function. S. cerevisiae slowed by influenza A NS1, growth recovery by OD600. Potency, µM (highest dose often 46.1 µM), for inactives: at the top dose activity, positive = more growth. hit rate 0.4% among 270,000; also: actives are rising curves; nearly all actives have a fitted effect of over 50% in size
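S. cerevisiae expressing influenza A NS1, grown in glucose, washed, then diluted 1:100 into pH 6.0 -URA galactose medium with 23 nl compound. Growth recovery read as OD600; NS1-free strain serves as control.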
RE007 growth inh: less growth of the S. pombe RE007 Vpr strain; S. pombe RE007 Vpr strain, BacTiter-Glo ATP luminescence, 24 h; control for the full effect not named in the record; Potency, µM (titrated, usually from 92.2 µM), inactives show at the highest dose activity change, negative = less growth; hit rate 0.21% among 360,000; AID 651644; active = well fitted falling curve with a large enough effect; inconclusive = small, poorly fitted or top-dose-only effect; inactive = no such curve, though single readings can be large or run the other way;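 also: % is scaled to controls: 0 for no effect and ±100 for the full control effect; nearly all actives have a fitted effect of over 50% in size; the assay follows cell death caused by Vpr and the record does not say whether a fall means rescue or toxicity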
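Fission yeast strain RE007, carrying one chromosomally integrated HIV-1 vpr copy, was seeded at OD 0.01 in PMG+AL medium with 23 nL pinned compound. After 24 h at 30 °C and 99% humidity, viability was read by BacTiter-Glo luminescence.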
Numbers without * were called inactive; ? = inconclusive; . = not tested or not shown; & = joins results of further samples; [ ] = remark or other dose. Unless noted, calls follow the shape of the dose curve; as a rule, active means well fitted rising curve with a large enough effect; inconclusive means small, poorly fitted or top-dose-only effect; inactive means no such curve, though single readings can be large or run the other way. Potency is read from the fitted curve at half-maximal effect.

SMILES	Lassa entry inh	Marburg entry inh	StopGo reporter	Cruzain noTriton	SARS PLpro yeast	Cruzain inh Det	NS1 inh	RE007 growth inh
O=C(CNc1ccc(Br)cc1)Nc1ccc(S(=O)(=O)N2CCCC2)cc1	-17.7%	?	-26.0%	.	0.9%	.	.	-17.4%
Cc1ccc[n+](CC(=O)c2cc3ccccc3oc2=O)c1	11.9%	6.5%	.	-2.6%	-4.1%	-5.6%	-9.8%	1.1%
COc1ccc(NC(=O)CSc2nccn2Cc2ccco2)cc1OC	-12.2%[46.1 µM]	.	19.9%&0.0%	3.1%	0.9%	0.9%	-1.0%	-11.0%
COc1ccc(NC(=O)CCS(=O)(=O)c2ccccc2)c(OC)c1	?	?	24.0%	8.5%	-11.6%	-3.2%	-7.5%	-3.4%
COCCn1cc(C(=S)N2CCCCC2)c2ccccc21	-1.3%	8.1%[46.1 µM]	37.1%[activator]	.	1.7%	.	0.2%	-5.9%
COc1ccc(-c2cc(OC(=O)c3cccc(Cl)c3)c3c(C)oc(C)c3c(=O)c2)cc1	?	?	-8.9%	6.3%	.	-13.6%	.	.
CCOC(=O)C1CCN(C(=O)Cc2ccc(-c3ccccc3)cc2)CC1	.	.	-21.6%	.	-6.2%	.	-38.3%	-20.8%
CN1CCN(S(=O)(=O)c2ccc(SCCOc3ccc(Cl)cc3)nc2)CC1	-17.3%	?	-21.1%	.	8.4%	.	.	-8.9%
Cc1ccc2[nH]c(=O)c(CN(Cc3ccco3)C(=O)N3CCOCC3)cc2c1	-8.6%	-12.2%[46.1 µM]	-29.3%	.	0.5%	.	-2.8%	17.8%
O=C(COC(=O)C1COc2ccccc2O1)NC1CCCCC1 (stereo not drawn)	8.7%	4.3%	-7.9%	.	-2.9%	.	.	26.6%
CCOc1ccc2nc(N(CCN(C)C)C(=O)c3ccc4ccccc4c3)sc2c1	-24.4%[46.1 µM]	-10.7%[46.1 µM]	-3.8%	.	-2.5%	.	-40.3%	-5.1%
FC(F)(F)c1ccccc1-n1c(-c2cnccn2)n[nH]c1=S	-21.2%[46.1 µM]	?	-29.3%	.	1.1%	.	-5.8%	8.1%
S=C(Nc1ccc(Br)cc1)N1CCn2cccc2C1c1cccnc1 (stereo not drawn)	?	-24.8%[46.1 µM]	14.5%	.	-12.4%	.	.	2.4%
O=C(OCC(=O)N1CCCc2ccccc21)c1ccccc1OC(F)F	6.1%[46.1 µM]	4.7%[46.1 µM]	-2.7%	.	-3.0%	.	.	4.3%
COc1ccc(N2C(=O)CC(NNc3nc4ccccc4s3)C2=O)cc1 (stereo not drawn)	-8.8%[46.1 µM]	23.3%[46.1 µM]	-7.3%	.	-2.6%	.	4.3%	8.9%
CC(C)c1ccc(/C=C(/C#N)c2nnc(NC(=O)c3ccccc3)s2)cc1	-1.1%	10.7%	-1.3%	12.6µM*	7.8%	-6.2%	17.0%	4.2%
O=C(Nc1ccc(F)c([N+](=O)[O-])c1)C(=O)c1c(O)[nH]c2ccccc12	6.7%[46.1 µM]	24.2%[46.1 µM]	-7.7%	.	-1.8%	.	.	-20.6%
Cc1cc(C)c2c(N)c(C(=O)N3CCc4ccccc4C3)sc2n1	.	.	10.7%	.	-3.5%	.	-8.8%	-5.3%
O=C(CN(Cc1ccco1)C(=O)Cn1nnc(-c2ccc(F)cc2)n1)NC1CCCC1	-9.8%	-3.9%&4.3%	-2.5%	-9.5%	4.9%	2.1%	-13.9%	-5.5%
c1ccc2oc(NC3=NCN(C4CCCCC4)CN3)nc2c1	21.4%[46.1 µM]	18.1%[46.1 µM]	40.6%[activator]	.	-1.2%	.	-17.0%	7.0%
CCc1ccccc1NC(=O)CCS(=O)(=O)c1ccc(Br)cc1	.	.	-21.8%	.	1.5%	.	0.6%	16.3%
COc1ccc(CN2C(=O)c3cccnc3C2=O)cc1S(=O)(=O)N(C)c1ccc(C)cc1	.	.	-16.0%	.	1.6%	.	-3.9%	6.5%
Nc1nc(NCC2CCCO2)nc(Nc2ccccc2F)c1[N+](=O)[O-] (stereo not drawn)	.	.	-21.3%	.	-0.1%	.	-7.1%	-6.2%
CC1CCc2nc(NC(=O)CN3CCN(c4ccccc4)CC3)sc2C1 (stereo not drawn)	-18.2%	12.7%	?	-8.0%	-4.2%	-5.3%	-75.7%	-14.3%
CCN(CC)S(=O)(=O)c1ccc(Cl)c(NC(=O)c2cc(Cl)ccc2Cl)c1	-0.2%	-16.0%	12.9%	-17.8%	-2.6%	-5.2%	5.4%	1.7%
(more compounds)
SMILES	Lassa entry inh	Marburg entry inh	StopGo reporter	Cruzain noTriton	SARS PLpro yeast	Cruzain inh Det	NS1 inh	RE007 growth inh
O=C(CSc1c2c(nc3ccccc13)CCC2)Nc1ccc(F)cc1F	-14.2%[46.1 µM]	?	-20.4%	-8.4%	.	-7.4%	.	.
CCOc1ccc(NC(=O)CNC(=O)Cc2ccccc2)cc1	?	-0.4%	31.9%	.	16.2%	.	10.8%	6.2%
Cc1ccccc1NC(=O)c1c(C)oc2ccc(O)c(CN3CCN(C)CC3)c12	0.1%[46.1 µM]	?	-11.2%	-25.1%	.	-2.9%	.	.
Cc1[nH]c2ccccc2c1C(=O)COC(=O)c1cccc(S(=O)(=O)N2CCCCC2)c1	?	?	-3.9%	?	21.5%	-4.7%	-5.1%	10.3%
O/N=C/c1ccc2ccccc2c1	11.0%	0.0%[46.1 µM]	22.0%	.	-1.2%	.	-2.9%	20.6%
O=c1c2ccccc2nnn1Cc1ccccc1Cl	20.8%[46.1 µM]	-4.1%[46.1 µM]	-12.0%	.	-1.9%	.	-5.6%	8.0%
CCCn1ncc(C(=O)NC2CCCN(Cc3ccc(Cl)cc3)C2)c1C (stereo not drawn)	0.9%[46.1 µM]	-13.0%[46.1 µM]	23.1%	.	-3.3%	.	1.1%	-6.0%
COc1ccc(S(=O)(=O)CCC(=O)Nc2c(C)n(C)n(-c3ccccc3)c2=O)cc1	5.4%	?	-21.8%	?	3.0%	4.0%	-0.6%	-7.2%
CCn1c(-c2ccccc2)csc1=Nc1ccc(S(=O)(=O)O)cc1	-26.8%	?	?	1.5%	19.0%	-1.4%	-0.2%	15.8%
C=CCNC(=O)CSc1nc2ccccc2c(=O)n1CCc1ccc(OC)c(OC)c1	.	.	-29.8%	.	1.3%	.	2.4%	1.3%
CCOC(=O)c1cnc2c(-c3ccc(F)cc3)cnn2c1C(F)(F)F	?	-0.4%	1.6%	.	-0.4%	.	-4.6%	-8.0%
COc1ccc(CCNC(=O)C2CCN(Cc3nc(-c4ccccc4C)oc3C)CC2)cc1OC	-7.3%	?	?	-1.8%	-0.1%	6.0%	-1.8%	-14.0%
N/C(=N\OC(=O)CCC1CCCCC1)c1ccccn1	?	18.2%	31.8%[activator]	-0.7%	3.2%	6.3%	-12.1%	21.8%
CCC(c1nnc(SCc2nc3ccccc3s2)n1Cc1ccccc1)N(C)C (stereo not drawn)	-24.0%	-11.2%	49.2%[activator]	-23.1%	1.2%	1.8%	-1.8%	6.0%
CC(=O)c1ccc(N2CCCCC2)c(F)c1	17.9%	-18.9%[14.2 µM]	7.8%	.	0.0%	.	3.9%	-15.1%
O=C(Nc1ccc(S(=O)(=O)N2CCOCC2)cc1)c1ccc(Cl)cc1Cl	.	.	-10.2%	.	-2.2%	.	-8.0%	-4.8%
CCNC(=O)c1cc(Cl)ccc1OC	-1.0%	?	-10.1%	-0.6%	-5.6%	1.0%	4.1%	-0.5%
CN(C)S(=O)(=O)c1cccc(NC(=O)c2ccc(OC(F)(F)F)cc2)c1	?	?	?	-3.7%	-0.6%	-3.4%	5.0%	27.9%
CCC(CC)C(=O)Nc1cccc(C(=O)NC(C)(C)C)c1	.	0.0%[46.1 µM]	0.1%	.	-0.2%	.	3.1%	-2.1%
COc1cccc(CN(C(=O)c2cc3ccccc3oc2=O)C2CCS(=O)(=O)C2)c1 (stereo not drawn)	0.7%[46.1 µM]	?	24.3%	.	2.4%	.	?	-9.5%
Cc1ccc(C)c(NC(=S)NCC(c2ccccc2)N(C)C)c1 (stereo not drawn)	2.0%	-17.1%[46.1 µM]	6.7%	.	1.2%	.	.	-21.7%
CCOC(=O)Cc1csc(Nc2ccc(Cl)cc2)n1	.	.	12.9%	-10.9%	-46.4%	-8.6%	-13.2%	-22.9%
O=C(c1ccco1)N1CCN(CCCCN2C(=O)c3ccccc3C2=O)CC1	7.8%	?	.	-1.5%	2.2%	3.9%	2.3%	4.1%
COc1ccc(CC(=O)n2nc(-c3ccccc3)nc2NCc2ccco2)cc1	4.3%	2.1%	35.0%[activator]	-6.0%	1.4%	-1.9%	-0.2%	-2.4%
C=CCn1c(SCc2c(C)noc2C)nnc1C1COc2ccccc2O1 (stereo not drawn)	1.5%	?	-24.9%	-2.2%	-7.6%	-9.0%	-38.0%	-16.9%
Cc1cc2nc(C3CCCN(C(=O)NCc4ccccc4)C3)[nH]c2cc1C (stereo not drawn)	-7.3%	6.7%	34.2%[activator]	4.5%	-1.9%	-6.4%	4.9%	-2.6%
C#CCNC(=O)C1=C[C@H](C2CCCCC2)C[C@H](OCc2ccc(CO)cc2)O1	.	.	22.5%	.	-4.0%	.	-4.2%	15.1%

Gathered by group, the entries above containing bromine
SMILES	Lassa entry inh	Marburg entry inh	StopGo reporter	Cruzain noTriton	SARS PLpro yeast	Cruzain inh Det	NS1 inh	RE007 growth inh
O=C(CNc1ccc(Br)cc1)Nc1ccc(S(=O)(=O)N2CCCC2)cc1	-17.7%	?	-26.0%	.	0.9%	.	.	-17.4%
S=C(Nc1ccc(Br)cc1)N1CCn2cccc2C1c1cccnc1 (stereo not drawn)	?	-24.8%[46.1 µM]	14.5%	.	-12.4%	.	.	2.4%
CCc1ccccc1NC(=O)CCS(=O)(=O)c1ccc(Br)cc1	.	.	-21.8%	.	1.5%	.	0.6%	16.3%
